# Source: PubChem BioAssay (National Center for Advancing Translational Sciences (NCATS))
# VDR inh = vitamin D3 receptor (human) inhibition | P11473 | VDR-SRC2-3 peptide fluorescence polarization, 2 h | Potency, µM, inactives show max response, negative = inhibition, most hits filed as inhibitors | actives 0.93% (n = 400,000) | AID 504847; active = well fitted inhibition curve with a large enough effect; inconclusive = small, poorly fitted or top-dose-only effect, or another doubt; inactive = no such curve, though single readings can be large or run the other way; also: series mostly up to about 120 µM
# Target sequence (P11473 whole entry, looked up): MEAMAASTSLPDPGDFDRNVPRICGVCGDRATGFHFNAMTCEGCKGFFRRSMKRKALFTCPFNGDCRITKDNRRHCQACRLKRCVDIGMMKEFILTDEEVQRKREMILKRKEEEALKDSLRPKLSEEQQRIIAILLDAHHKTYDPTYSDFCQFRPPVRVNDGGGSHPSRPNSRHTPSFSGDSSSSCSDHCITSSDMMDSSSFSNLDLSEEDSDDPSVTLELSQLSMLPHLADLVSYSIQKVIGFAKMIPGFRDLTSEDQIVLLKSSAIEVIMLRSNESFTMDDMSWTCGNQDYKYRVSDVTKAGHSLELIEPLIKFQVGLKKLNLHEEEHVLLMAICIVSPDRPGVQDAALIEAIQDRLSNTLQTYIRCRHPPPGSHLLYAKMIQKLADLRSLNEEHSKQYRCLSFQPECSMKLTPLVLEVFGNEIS
#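 Fluorescence polarization assay measuring small-molecule disruption of VDR binding to the coregulator peptide SRC2-3. Compounds were pin-transferred (23 nl) into the reagent mix and incubated 2 h at room temperature before reading.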
# * marks the source's active call; other numbers are inactive results; ? = inconclusive; & = joins results of further samples. % is scaled to controls: 0 for no effect and ±100 for the full control effect; potency is read from the fitted curve at half-maximal effect. The list is partial; count on the stated rates, not on these rows.
VDR inh	canonical_smiles
15%	O=C1CC(c2ccccc2)CC(=NCCO)/C1=C(\O)CCCN1C(=O)c2ccccc2C1=O (centres undefined)
-13%	O=C(CCc1nnc(C2(c3ccc(Cl)cc3)CCC2)o1)NC1CC1
-5%	O=C(C[C@H]1C/C=C\C[C@@H](Cc2ccc(F)cc2)C(=O)OC[C@@H]2CCCN2C1=O)NCCO
17%	CC(NC(=O)c1cn(C)c2ccc(S(=O)(=O)N3CCCC3)cc2c1=O)c1ccc2c(c1)OCCO2 (centres undefined)
3%	Cc1cc(=O)oc2cc(OCC(=O)OCC(=O)Nc3c(C)n(C)n(-c4ccccc4)c3=O)ccc12
0%	O=C(C[C@@H]1C/C=C/CCCC(=O)O[C@H](c2ccccc2)CNC1=O)NCCO
?	C=CCN(C(=O)CSc1nnnn1C)c1nc(-c2ccccc2)cs1
-13%	O=C(NC1CCCC1)C1CC(=O)N(c2ccc(F)cc2)C1 (centres undefined)
-6%	CC(C)(C)C1=C(C#N)C(c2ccc3c(c2)OCO3)C(C#N)=C(N)O1 (centres undefined)
-12%	Cn1cnnc1SCc1ccc(C(=O)N=Nc2c(O)n(C)c3ccccc23)cc1
1%	CCn1c2ccccc2c2nnc(SCc3ccc(C(=O)OC)o3)nc21
-15%	CCOC(=O)C1(Cc2cccc(OC)c2)CCN(CC=C(C)C)CC1
-4%	O=C(/C=C/c1ccccc1)Nc1cccc(C(=O)O)c1
-8%	COC(=O)c1sccc1S(=O)(=O)NC(C)c1cnn(-c2ccc(OC)cc2)c1C (centres undefined)
11%	CN(CC(=O)Nc1cccc(F)c1)C(=O)c1cccc(S(=O)(=O)N2CCN(c3ccc(F)cc3)CC2)c1
8%	O=C(CCC(=O)c1cccs1)Nc1ccc(F)c(F)c1F
-10%	CN=C1SC(CC(=O)Nc2ccc(N3CCOCC3)cc2)C(=O)N1C (centres undefined)
7%	COc1ccc(CN(C(=O)COc2ccccc2OC)C2CCS(=O)(=O)C2)cc1 (centres undefined)
-15%	CCO[C@@H]1OC(C(=O)NCc2ccccc2)=C[C@H](C2CC2)[C@H]1CCCO
-7%&-14%	CCOc1ccc(N(CC)C(=O)c2nn(-c3ccc(OC)cc3)c(=O)c3c2c2ccccc2n3C)cc1

# New compounds follow
VDR inh	canonical_smiles
-4%	CCN(CC(=O)Nc1ccc(NC(C)=O)cc1)C(=O)C(c1ccccc1)c1ccccc1
0%	COc1cccc(-c2nnc3sc(-c4ccco4)nn23)c1
18%	CCCc1cc(=O)[nH]c(SCC(=O)NC(=O)c2ccccc2)n1
3%	CN1CCc2c(sc(/N=C/c3c[nH]c4ccccc34)c2C#N)C1
6%	Cc1cc2nsnc2c(S(=O)(=O)NCC(=O)O)c1C
-4%	CCCCCC[n+]1c(-c2ccc(Cl)cc2Cl)csc1Nc1ccccc1
3%	C/C(=N\NC(=O)NC1CCCCC1)c1ccc(OC(F)F)cc1OC(F)F
-14%	CC1CCc2c(sc3ncnc(NCc4cccnc4)c23)C1 (centres undefined)
-22%	CCO[C@H]1OC(C(=O)Nc2ccccc2)=C[C@@H](C2CC2)[C@@H]1CCCO
-5%	CCOc1ccccc1-n1nnnc1SCC(=O)Nc1cc(C)on1
17%	COCCN(C(=O)c1csnn1)C(C(=O)NC1CCCCC1)c1ccc(C)cc1 (centres undefined)
-8%	C=CCn1c(SCc2ccc(C(=O)Nc3nccs3)cc2)nnc1-c1ccc(C)c(Cl)c1
11%	CC(NC(=O)CCNC(=O)c1ccc(C(C)(C)C)cc1)c1ccccc1 (centres undefined)
1%	CCOc1ccc(OCC)c(NC(=O)C2CCCN2S(=O)(=O)c2cccc3cccnc23)c1 (centres undefined)
-16%	CCN(CC)c1ccc(/C=N/NC(=O)c2ccc(Br)o2)cc1
-10%	C=CC[C@@H](CC(=O)N(CCO)Cc1ccccc1)C(=O)N[C@H](COC(=O)[C@@H](CC=C)Cc1ccc(F)cc1)C(C)(C)C
-22%	CC(=O)CCc1oc2ccc(C)cc2c1-c1ccc(C)o1
11%	CC(=O)Nc1ccc(NC(=O)c2nc(SCc3ccccc3C)ncc2Cl)cc1
-6%	Cc1[nH]c2ccc(F)cc2c1CCN(Cc1cccnc1)C(=S)Nc1ccccc1
11%	N#C/C(C(=O)N1CCOCC1)=C1/SC(Cc2ccccc2Cl)C(=O)N1c1ccccc1 (centres undefined)

# (further entries)
VDR inh	canonical_smiles
27%	COCCN1C(=O)C(=O)/C(=C(/O)c2ccc(C)cc2)C1c1ccccn1 (centres undefined)
13%	CC(C)(C)OC(=O)CNC(=O)c1[nH]cnc1C(=O)N[C@@H](Cc1ccccc1)C(=O)OCc1ccccc1
-2%	Cc1ccc(-n2c(=O)c3ccccc3n(CC(=O)Nc3cccc(C(F)(F)F)c3)c2=O)cc1
-5%	COc1ccc(N(CC(O)Cn2nnc3ccccc32)S(=O)(=O)c2ccc(C)cc2)cc1 (centres undefined)
18%	CCOc1ccccc1NC(=O)COC(=O)/C=C/c1cccs1
22%	COc1cccc(N2CCN(CC(=O)Nc3nnc(-c4ccccc4)s3)CC2)c1
-9%	COc1ccc2ccc(OCC(=O)NCC3CCCO3)cc2c1 (centres undefined)
0%	COc1cccc(CC(NC(C)=O)C(=O)NC2CCN(c3nnnn3-c3ccccc3)CC2)c1 (centres undefined)
3%	CNC[C@H]1Oc2c(NC(=O)C3CC3)cccc2C(=O)N([C@H](C)CO)C[C@@H]1C
-13%	CCOC(=O)c1ccc(NC(=O)c2c(N)n(C)c(=O)n(C)c2=O)cc1
0%	N/C(=N\OC(=O)c1csnn1)c1ccc(C(F)(F)F)cc1
-2%	O=C(Nc1ccc(Cl)cc1C(=O)N1CCCCC1)c1ccco1
-8%	O=C(c1cc2ccccc2s1)N1CCOCC1
7%	N#CC1=C(N)Oc2cc(N)ccc2C1c1cccc(F)c1 (centres undefined)
-8%	Cc1cc(C(c2ccc(C)o2)c2ccc(C)o2)c(O)c([N+](=O)[O-])c1
-8%	O=C(Cc1c(F)cccc1Cl)Nc1nccs1
7%	O=C(CSc1nc2c(c(=O)[nH]1)CCCC2)Nc1ccc(Br)cc1
-8%	CCOC(=O)N1CCC(NC(=O)C2CCN(C(=O)N3CC(C)Oc4ccccc43)CC2)CC1 (centres undefined)
-6%	COc1ccccc1N=C(C)C1=C(O)CSC1=O
-18%	COc1ccccc1NC(=O)C(=O)NNS(=O)(=O)c1ccc2ccccc2c1

# Further results follow.
VDR inh	canonical_smiles
5%	O=C(NCc1ccccc1)C(c1ccc(F)cc1)N(C(=O)c1csnn1)C1CC1 (centres undefined)
-10%	Cc1cccc2c1CC(C)(C)NC2=C(C#N)C#N
-2%	Cc1ccc(Cn2c(=O)n(Cc3ccco3)c(=O)c3sc4ccccc4c32)cc1
20%	Cc1cc(NC(=O)Nc2nc3c(s2)CCCCCC3)ccc1Br
4%	O=C(NCCCN1CCCC1=O)c1cccc(N2CCCC2=O)c1
-14%	COc1cccc(NC(=O)C(c2ccccc2)N2CCCC2)c1 (centres undefined)
-12%	O=C(NCCc1ccccc1)C(=O)Nc1ccc2c(c1)OCCO2
-13%	O=C(c1nc2ccc(Cl)cn2c1CN1CCC(CO)CC1)N1CCc2ccccc2C1
-26%	Cc1ccc(/C=N/NC(=O)Cc2ccc(Cl)cc2)c(O)c1
-7%	CC(C)(C)OC(=O)NCCCC[C@H](NC(=O)c1nc[nH]c1C(=O)N1CCN(C(=O)OC(C)(C)C)CC1)C(=O)OC(C)(C)C
-14%	CC[C@]12c3[nH]c4ccccc4c3CCN1C(=O)C(CC(=O)NCCC1=CCCCC1)C[C@@H]2C(=O)N1CCN(C(=O)C2CC2)CC1 (some centres undefined)
6%	Cc1c(NC(=S)N/N=C/c2ccc(O)cc2)c(=O)n(-c2ccccc2)n1C
13%	O=C(CSc1nc(-c2cccs2)nc2cc(=O)[nH]n12)Nc1ccccc1Cl
-16%	COc1cccc(/C=N/NC(=O)CC2C(=O)NN=C2C)c1O (centres undefined)
-5%	O=C(NNC1=Nc2cc([N+](=O)[O-])ccc2OC1)c1ccccc1Cl
-18%	CCc1sc(C(=O)Nc2ccc(NC(C)=O)cc2)cc1C
10%	Cc1c(C(=O)N2CCN(C)CC2)oc2ccc(S(=O)(=O)N3CCOCC3)cc12
-8%	CC(=Nc1cc(C(=O)c2ccccc2)ccc1N)C1=C(O)CC(C)(C)CC1=O
13%	O=C(CCCCCNc1nc(=S)[nH]c2ccccc12)NCCc1ccccc1
-9%	CN(CC(=O)Nc1c(Cl)cccc1Cl)C(=O)C1CSC2(C)CCC(=O)N12 (centres undefined)

# The list continues:
VDR inh	canonical_smiles
5%	COc1ccc(NC(=S)NCc2ccccn2)cc1OC
1%	C#CC[N+](CC)(CC)CC#Cc1cccc(Cl)c1
-3%	COc1ccccc1/C=C(/NC(=O)c1ccccc1)C(=O)NCCN1CCOCC1
1%	COc1ccc(OCc2ccc(-c3nc(C#N)c(N4CCCCC4)o3)o2)cc1
8%	NS(=O)(=O)c1ccc(CCNC(=O)c2cc([N+](=O)[O-])ccc2N2CCCCC2)cc1
2%	CCOC(=O)C1CCN(CC(=O)Nc2c(C(=O)OC)[nH]c3ccc(Cl)cc23)CC1
-8%	COc1ccc(NC(=O)C(NS(=O)(=O)c2cccc3nsnc23)C(C)C)cc1OC (centres undefined)
5%	CC1CC(NC(=O)c2cc3c(=O)n4ccccc4nc3n2C)CC(C)(C)C1 (centres undefined)
-12%	CS(=O)(=O)c1ccc(-c2nnc(NC(=O)c3ccc(S(=O)(=O)N4CCCC4)cc3)o2)cc1
-7%	CSc1cccc(N2C(=O)C3CCCN3C2=S)c1 (centres undefined)
-10%	C#CCOCCOCCOCCNc1nc(N2CCOCC2)nc(N2CCN(C(=O)[C@H]([C@@H](C)CC)n3cc([C@@H](N)Cc4ccc(O)cc4)nn3)CC2)n1
-7%	CCOC(=O)c1ccc(NC(=S)N2CCN(Cc3ccccc3)CC2)cc1
-6%	COc1cc2c(C(=O)N3CCOCC3)c(CSc3ccccc3)n(C)c2cc1Br
-12%	Cc1ccc(C)c2c1cc(C)c1nnc(SCC(=O)NCc3ccc4c(c3)OCO4)n12
-14%&4%	CSc1ncc(Cl)c(C(=O)Nc2ccc(S(=O)(=O)Nc3nccc(C)n3)cc2)n1
-7%	Cc1cc(C(=O)CSc2nc(N)cc(=O)[nH]2)c(C)n1CCc1ccc(F)cc1
7%	Cc1nnc(NC2=NCCC2)o1
-12%	Cc1cc(C)nc(NC(=O)c2ccc(COc3ccccc3Cl)cc2)c1
7%	O=C(CCc1nnc(COc2ccccc2)o1)NCCc1cccs1
-17%	COc1ccc(CCNC(=O)COC(=O)c2cccs2)cc1OC

# Fetched by compound from the list above (three):
VDR inh	canonical_smiles
5%	COc1ccc(NC(=S)NCc2ccccn2)cc1OC
1%	COc1ccc(OCc2ccc(-c3nc(C#N)c(N4CCCCC4)o3)o2)cc1
-3%	COc1ccccc1/C=C(/NC(=O)c1ccccc1)C(=O)NCCN1CCOCC1

# The listing continues:
VDR inh	canonical_smiles
7%	Cc1ccccc1OCC(=O)Nc1ccc(S(=O)(=O)N2CCOCC2)cc1
?	CCOC(=O)[C@@H](CCc1ccccc1)N[C@H](C)C(=O)N1[C@H](C(=O)O)C[C@@H]2CCC[C@@H]21
-16%	C=CCc1ccc(OCCn2cncn2)c(OC)c1
0%	Cc1c(S(=O)(=O)N2CCN(c3cccc(Cl)c3)CC2)c(=O)n(C)c(=O)n1C
-12%	CCCc1nnc(SCC(=O)Nc2ccc(OCC)cc2)n1N
-20%	O=C(Nc1ccc(F)cc1)c1cc(-c2ccccc2)no1
-15%	Cc1cccc2cc(COC(=O)c3cccs3)c(=O)[nH]c12
-7%	OC(c1ccccc1)C(NCCNCc1ccccc1)c1ccccc1 (centres undefined)
-6%	CCOc1ccc(-n2c(SCC(=O)Nc3ccc(Br)cc3)nc3n[nH]c(C)c3c2=N)cc1
-2%	COc1ncnc2c1cnn2-c1ccccc1
5%	COc1cccc(Cn2c(=O)c(CCc3ccccc3)nc3cnc(OC)nc32)c1
-2%	Cc1ccccc1C(=O)NCc1nnc(SCC(=O)N2CCN(c3ccccc3)CC2)n1C
?	CCCCC(C)(C)[C@H](O)/C=C/[C@H]1[C@H](O)CC(=O)[C@@H]1C/C=C\CCCC(=O)O
-17%	Nn1c(COc2cccc(Br)c2)nnc1SCC(=O)NCC1CCCO1 (centres undefined)
-8%	Cc1ccc(S(=O)(=O)N2CCCC2C(=O)NCCc2ccccc2)cc1 (centres undefined)
-15%	Cc1cc(NC(=O)CCN2C(=O)/C(=C\c3ccccc3)SC2=S)no1
-7%	Brc1c(CSc2nncn2-c2ccccc2)nc2ncccn12

# Gathered by group: those above containing an NH in an aromatic ring
VDR inh	canonical_smiles
18%	CCCc1cc(=O)[nH]c(SCC(=O)NC(=O)c2ccccc2)n1
3%	CN1CCc2c(sc(/N=C/c3c[nH]c4ccccc34)c2C#N)C1
-6%	Cc1[nH]c2ccc(F)cc2c1CCN(Cc1cccnc1)C(=S)Nc1ccccc1
13%	CC(C)(C)OC(=O)CNC(=O)c1[nH]cnc1C(=O)N[C@@H](Cc1ccccc1)C(=O)OCc1ccccc1
7%	O=C(CSc1nc2c(c(=O)[nH]1)CCCC2)Nc1ccc(Br)cc1
-7%	CC(C)(C)OC(=O)NCCCC[C@H](NC(=O)c1nc[nH]c1C(=O)N1CCN(C(=O)OC(C)(C)C)CC1)C(=O)OC(C)(C)C
-14%	CC[C@]12c3[nH]c4ccccc4c3CCN1C(=O)C(CC(=O)NCCC1=CCCCC1)C[C@@H]2C(=O)N1CCN(C(=O)C2CC2)CC1 (some centres undefined)
13%	O=C(CSc1nc(-c2cccs2)nc2cc(=O)[nH]n12)Nc1ccccc1Cl
13%	O=C(CCCCCNc1nc(=S)[nH]c2ccccc12)NCCc1ccccc1
2%	CCOC(=O)C1CCN(CC(=O)Nc2c(C(=O)OC)[nH]c3ccc(Cl)cc23)CC1
-7%	Cc1cc(C(=O)CSc2nc(N)cc(=O)[nH]2)c(C)n1CCc1ccc(F)cc1
-15%	Cc1cccc2cc(COC(=O)c3cccs3)c(=O)[nH]c12
-6%	CCOc1ccc(-n2c(SCC(=O)Nc3ccc(Br)cc3)nc3n[nH]c(C)c3c2=N)cc1
